# Rango complex inh – prevents formation of the Rango-importin beta complex; Q14974; Rango CFP/YFP FRET sensor + importin beta, 45 min; Potency, µM (highest dose often 92.2 µM), for inactives: top-dose inhibition of complex formation; hit rate 0.031% among 340,000; AID 540263; active = rising FRET ratio curve, often small or poorly fitted; inconclusive = mostly compound fluorescence or quenching in the first reads; inactive = flat curves in all reads;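 note: potency is the fitted concentration of half-maximal effect; 0% = DMSO wells and 100% = buffer wells lacking importin beta; nearly all actives have a fitted effect of over 15% in size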
#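 Inhibition scored from the CFP 486 nm/YFP 530 nm FRET ratio 45 min after adding 0.125 microM importin beta to 50 nM Rango biosensor preincubated 5 min with compound (room temperature, PBS with DTT, Tween-20, BSA). No-importin wells as positive control.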
# GLA inh pH 4.5 – blocks human alpha-galactosidase A at pH 4.5; activity change, negative = inhibition, % at 105 µM; 230,000 tested, under 10 active; purified enzyme, 4-MU-alpha-Gal fluorescence, pH 4.5; P06280; inconclusive = small, poorly fitted or top-dose-only inhibition, or a rising curve; inactive = flat fitted curve, though single readings scatter; no compound was filed as active;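 note: 0% = full activity with enzyme and -100% = basal without enzyme; dose as in the result columns while the protocol names 77 µM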
# Target sequence (P06280 whole entry, looked up): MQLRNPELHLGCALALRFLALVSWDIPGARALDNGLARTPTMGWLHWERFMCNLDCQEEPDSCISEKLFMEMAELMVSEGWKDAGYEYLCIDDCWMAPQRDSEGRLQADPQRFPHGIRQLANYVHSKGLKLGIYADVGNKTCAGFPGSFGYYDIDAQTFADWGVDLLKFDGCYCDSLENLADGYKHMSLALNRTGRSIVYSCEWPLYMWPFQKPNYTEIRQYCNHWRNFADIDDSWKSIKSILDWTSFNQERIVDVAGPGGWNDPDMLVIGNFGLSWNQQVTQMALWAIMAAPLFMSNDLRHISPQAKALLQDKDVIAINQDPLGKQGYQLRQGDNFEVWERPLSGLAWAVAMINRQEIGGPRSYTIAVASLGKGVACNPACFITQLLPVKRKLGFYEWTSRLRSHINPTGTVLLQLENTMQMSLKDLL
# Rango release inh – prevents RanGTP from dissociating the Rango-importin beta complex. Biochemical FRET Rango-importin beta, RanGTP-induced dissociation. O95149+P62826. hit rate 0.071% among 340,000. Potency, µM (highest dose often 46.1 µM), for the others: top-dose activity change, negative = inhibition; active means falling FRET ratio curve, often poorly fitted, with flat reads before Ran was added; inconclusive means other falling curves, or compound fluorescence or quenching; inactive means flat or rising ratio curve;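 note: potency is the fitted concentration of half-maximal effect; % of control where 0% means no effect; nearly all actives have a fitted effect of over 45% in size; -100% = wells without RanGTP and RCC1; the record marks most hits as doubtful in a second field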
#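 Rango FRET biosensor (snurportin-1 IBB flanked by N-terminal EYFP and C-terminal CFP10) at 0.1 uM, with 0.25 uM importin beta in PBS, 1mM DTT, 0.02% Tween-20, 0.1% BSA. 0.6 uM Ran, 2mM GTP and 0.2 uM RCC1 were then added for 45 min at room temperature. Inhibition read as loss of FRET rise.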
# miR-21 FLuc – raises the signal of a miR-21 reporter. HeLa miR-21 FLuc reporter, luciferase, 48 h. 340,000 tested, under 10 active. Potency, µM (titrated, usually from 38.3 µM), without a hit: at the highest dose reporter change, positive = more light; active = well fitted rising curve with a large enough effect; inconclusive = small, poorly fitted or top-dose-only effect; inactive = no such curve, though single readings can be large or run the other way;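 note: % of control where 0% means no effect; miR-21 action dims this reporter so a rising signal means less miR-21 action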
#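 HeLa miR-21-FLuc reporter line, endogenous miR-21; 2000 cells/well in DMEM/10% FBS; compound titration up to ~40uM final, 48 h, 37 degree Celsius; luciferase detection reagent, 15 min lysis, CCD luminescence.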
# An asterisk follows results filed as active; ? = inconclusive; · = not tested or not shown; [ ] = another dose, or the depositor's remark.
# Values run as follows: Rango complex inh	GLA inh pH 4.5	Rango release inh	miR-21 FLuc
Cc1ccc(C(=O)NNC(=O)CCCN2C(=O)/C(=C/c3ccccc3Cl)SC2=S)cc1
 : 1.0%	0	-10%	?
O=c1c2ccccc2nc2n1CCN2
 : -5.2%	2	6%	-4%
O=C(NCCN1CCCC1)c1ccc2c(=O)n(CCc3ccccc3)c(=O)[nH]c2c1
 : -1.4%	?	-5%	-22%
Cc1ccc(NC(=O)c2sc3ncnc(N4CCN(c5ccccn5)CC4)c3c2C)c(C)c1
 : -3.6%	·	11%	27%
CCOc1ccc(N(CC(=O)N2CCCCCC2)S(C)(=O)=O)cc1
 : -0.5%	·	5%	0%
COc1ccc(NC(=O)C(NC(C)=O)C(=O)Nc2ccc(F)cc2)cc1 (stereo not given)
 : 0.9%	·	5%	3%
O=C(COc1ccc([N+](=O)[O-])cc1)Nc1ccc2c(c1)OCO2
 : -0.6%	4	-12%	-13%
Cc1ccc(C)c(S(=O)(=O)N2CCN(C(=O)c3ccccn3)CC2)c1
 : 1.4%	·	11%	·
Cc1ccc(OCC(=O)N2CCCCCC2)c(C)c1
 : 2.9%	-6	-2%	-26%
COc1cc(NS(=O)(=O)c2ccc(NC(=S)NC(=O)c3cccs3)cc2)nc(OC)n1
 : ?	3	23%	-15%
Cc1ccc(C(=O)c2sc(Nc3ccccc3)c(C#N)c2N)cc1
 : ?	-12	-1%	-14%
CCOC(=O)c1cnc2nc(COc3ccccc3)[nH]n2c1=O
 : 1.3%	-12	18%	-2%
O=C(CN1C(=O)NC2(CCCC2)C1=O)NCCc1ccccc1
 : -1.0%	·	-6%	·
CNS(=O)(=O)c1cn(CC(=O)NCc2ccccc2OC)cc1S(=O)(=O)NC
 : -2.5%	·	17%	4%
COc1ccc(N2CCN(Cc3nc4scc(-c5ccccc5)c4c(=O)[nH]3)CC2)cc1
 : -0.2%	-14	12%	-3%
Cc1cc(C)c2nc(-c3ccccn3)cc(C(=O)NCc3ccco3)c2c1
 : -2.4%	6	-10%	-2%
O=C(/C=C/c1ccc(Cl)cc1)NC(=S)Nc1ccc(C(=O)O)cc1
 : -0.5%	·	1%	-4%
O=S1(=O)CCO[C@H]2Cc3ccccc3[C@H]2N1Cc1ccccc1Br
 : 0.0%	·	2%	-1%
COc1ccc(C2CCCN2C(=O)Nc2ccccc2)cc1OC (stereo not given)
 : -0.8%	-3	-2%	-26%
COc1ccc(-c2c[n+]3c(n2-c2ccccc2)SCC3)cc1OC
 : -3.5%	10	-12%	6%
COC(=O)C1=C(C)NC(=O)NC1c1ccccc1 (stereo not given)
 : -3.7%	5	-4%	-3%
COc1ccc(OC)c(C2C3=C(CCCC3=O)NC3=C2C(=O)CCC3)c1
 : 3.3%	-7	1%	-5%
O=C(Nc1ccccc1N1CCCCC1)c1ccco1
 : -0.8%	-20	10%	-10%
O=C1/C(=C/c2cccnc2)CCC/C1=C\c1cccnc1
 : -0.5%	1	-11%	?
COc1ccccc1N1CCN(C(=O)C2CCCN(S(=O)(=O)c3ccc(C)cc3)C2)CC1 (stereo not given)
 : -2.6%	·	-5%	·
COc1cccc(O)c1CN1CCC(n2nccc2NC(=O)c2ccc3c(c2)OCO3)CC1
 : -4.0%	·	2%	3%
Cc1cc(C)nc(SCC(=O)N(C)C)n1
 : -3.3%	2	0%	0%
COc1ccc(S(=O)(=O)Nc2cc(Cl)ccc2-n2cncn2)cc1
 : 2.1%	·	0%	·
CCOC(=O)c1ccn(CSc2c(F)c(F)cc(F)c2F)n1
 : 3.0%	·	-15%	·
CC1CCCCC1NC(=O)COC(=O)c1ccccc1NC(=O)c1ccco1 (stereo not given)
 : 0.1%	7	1%	0%
COc1cc(NS(=O)(=O)c2ccc(N/C=C(\C#N)c3nc4cc(Cl)ccc4o3)cc2)nc(OC)n1
 : ?	2	?	1%
COc1ccc(Cn2nc(C)n(N(C)c3ncc(C(F)(F)F)cc3Cl)c2=O)cc1
 : ?	1	?	-8%
COc1ccc(NC(=O)CN(C)C(=O)c2ccc(N3CCOCC3)c([N+](=O)[O-])c2)cc1
 : ?	·	18%	·
CCOC(=O)c1sc(NC(=O)Cn2nnc3sc4c(c3c2=O)CCCC4)nc1C
 : ?	-14	-10%	-2%
COc1ccccc1NC(=S)N(Cc1ccc(Cl)cc1)CC1CCC(C(=O)O)CC1 (stereo not given)
 : 0.1%	1[21.1 µM]	3%	-16%
O=C(O)CN1CCN(Cc2ccc(F)cc2)C1=O
 : 11%	·	1%	-2%
Cc1cc(C)cc(-n2ccnc2SCC(=O)O)c1
 : -1.5%	7	7%	-39%
O=C(NCCOc1ccccc1)c1cc(S(=O)(=O)N2CCOCC2)ccc1F
 : 5.3%	·	0%	1%
COc1ccc(C(C)(C)C)cc1NC(=O)c1ccccc1-n1cnnn1
 : -0.7%	·	1%	·
FC(F)(F)c1cnc(Nc2ccc(N3CCOCC3)cc2)c(Cl)c1
 : 4.6%	-6	21%	-14%
O=C(CCCc1ccccc1)NC12CC3CC(CC(C3)C1)C2
 : -3.1%	·	1%	-66%
Cn1c(C(=O)O)c(CC(=O)Nc2ccc(F)cc2F)c2ccccc21
 : 3.7%	12	-9%	4%
NC(=O)C1(c2ccccc2)OC1c1ccccc1 (stereo not given)
 : 0.2%	·	-4%	·
CCOc1ccc(-n2c(SCC(=O)NC)nnc2-c2ccco2)cc1
 : -2.6%	·	8%	0%
Cc1cc(C)n2c(SCC(=O)Nc3ccccc3)nnc2n1
 : 5.7%	6	10%	-7%
OCCNCCCCOc1cccc(Br)c1
 : -3.5%	-1	25%	-7%
Cc1ccc(S(=O)(=O)N2C(=O)CCC2C(N)=O)cc1 (stereo not given)
 : 4.4%	·	16%	-11%
CSCCC(NC(=O)COc1ccccc1)C(=O)OCC(=O)c1ccccc1 (stereo not given)
 : -1.4%	·	-5%	·
COc1cccc(S(=O)(=O)N2CCN(c3ccccc3F)CC2)c1
 : 2.3%	-2	-10%	-3%
C=CCc1ccc(OCC(O)CN2CCN(Cc3ccc(Cl)cc3)CC2)c(OC)c1 (stereo not given)
 : 5.2%	-1	2%	18%

# Later entries:
# Values run as follows: Rango complex inh	GLA inh pH 4.5	Rango release inh	miR-21 FLuc
O=C(Nc1ccccc1)C1=C[C@@H](c2ccc(Br)cc2)C[C@@H](OCc2ccc(CO)cc2)O1
 : 0.9%	-1	5%	-7%
CCNC(=O)C1CC(=O)N(Cc2ccc3c(c2)OCO3)C(=Nc2ccc(F)cc2)S1 (stereo not given)
 : 0.2%	-3	-7%	1%
CC(=O)Nc1c(Cl)cc2c(c1Cl)Cc1cc(C#N)ccc1-2
 : -0.3%	·	3%	·
CC(=O)c1c(COC(=O)c2ccccc2)nc2ccccc2[n+]1[O-]
 : -6.1%	-2	-1%	3%
Clc1ccc(CNC23CN4CN(CN(C4)C2)C3)c(Cl)c1
 : 2.5%	-3	-10%	0%
CN(C)Cc1cc(C(C)(C)c2cc(CN(C)C)c(O)c(CN(C)C)c2)cc(CN(C)C)c1O
 : 7.0%	4	30%	-10%
CN(Cc1cccc(Cl)c1)C(=O)C1CCN(C(=O)Nc2ccccc2)CC1
 : 0.2%	·	-12%	·
O=S(=O)(NC1=NCCCCC1)c1ccc(Cl)cc1
 : -0.2%	2	23%	1%
CCN1C(=O)c2cccc3c(S(=O)(=O)NCc4ccco4)ccc1c23
 : ?	3	?	-2%
c1coc(-c2nc3c([nH]2)CCc2nonc2-3)c1
 : 3.5%	3	15%	-15%
CCCCNC(=O)CCC(=O)N1CCN(C(c2ccccc2)c2ccccc2)CC1
 : -1.1%	·	-17%	1%
O=C(COC(=O)C1CC1)Nc1ccc2[nH]c(=O)[nH]c2c1
 : 0.3%	10	6%	2%
O=C(Nc1ccccc1C(=O)Nc1ccccc1C(=O)O)c1ccccc1
 : -1.2%	·	11%	10%
COc1ccc(/C=C/C(=O)NCCc2ccc(OC)c(OC)c2)cc1
 : -0.6%	0	10%	-10%
CC(C)NC(=O)CN(C)S(=O)(=O)c1ccc(F)cc1
 : 0.4%	-2	-15%	-4%
CCN(CC)C(=O)CSc1nc(N)c(C#N)c(-c2cccs2)c1C#N
 : ?	6	0%	-16%
CCN(Cc1ccccc1)C(=O)Cn1c(=O)oc2ccccc21
 : 0.4%	-2	-4%	-6%
OCc1nc2ccccc2n1CC(O)COc1ccccc1 (stereo not given)
 : -2.3%	8	1%	-15%
COCCNc1nc2c(c(=O)n(C)c(=O)n2C)n1Cc1cccc(C(F)(F)F)c1
 : 6.2%	-10	-2%	9%
COc1ccc(-c2cc(-c3cccnc3)c(C#N)c(N)n2)cc1
 : 3.7%	?	14%	-5%
CC(C)Sc1nc2c(c(=O)[nH]c(=O)n2C)n1CC(O)COc1ccccc1 (stereo not given)
 : -6.2%	-7	28%	1%
O=C(c1ccco1)N1CCN(C(=S)Nc2ccccc2C(F)(F)F)CC1
 : -0.7%	·	-4%	15%
Cc1ccc(N(CC(=O)N/N=C/c2cccnc2)S(=O)(=O)c2ccccc2)cc1
 : -2.9%	2[21.1 µM]	10%	0%
O=C(CSc1nnc(CNc2ccc(F)cc2)n1Cc1ccco1)N1CCCC1
 : 4.7%	-7	7%	-6%
CCCCCc1nnc(N)s1
 : 1.9%	5	?	-2%
COc1ccc(CNC(=O)Cn2c(=O)n(CCC(=O)N3CCCCC3)c(=O)c3sccc32)cc1
 : 1.0%	·	1%	6%
CCC(c1nnnn1Cc1ccc2c(c1)OCO2)N1CCN(c2ccc(OC)cc2)CC1 (stereo not given)
 : 4.4%	-12	13%	-6%
CN1CCN(C(=O)c2cc(COc3ccc(F)cc3Cl)on2)CC1c1ccccc1 (stereo not given)
 : 0.5%	-11	-1%	-7%
Cc1ccc(C)c(-n2cc(CNC(C)Cn3cncn3)c(-c3ccccc3)n2)c1 (stereo not given)
 : -5.3%	-23	-7%	3%
O=C(O)c1ccccc1C(=O)N1CCN(S(=O)(=O)c2cccc(C(F)(F)F)c2)CC1
 : 0.6%	·	-6%	·
COC(=O)CN1C(=O)N/C(=C/c2cc(Cl)c(OC)c(OC)c2)C1=O
 : ?	-4[21.1 µM]	?	0%
Cc1cccc(OCCC(=O)Nc2ccc(N3CCOCC3)cc2N2CCOCC2)c1
 : 1.0%	·	-15%	·
O=C(NCc1ccccn1)c1cc(-c2ccccc2)on1
 : 7.3%	-3	-9%	-54%
O=C(Nc1nc(-c2ccccn2)cs1)C1COc2ccccc2O1 (stereo not given)
 : -5.1%	7	0%	11%
Cc1ncc([N+](=O)[O-])n1CCOC(=O)c1ccccc1
 : -5.2%	2	21%	-3%
COc1ccc(-c2noc(CCC(=O)N3CCC(C)CC3)n2)cc1
 : 0.8%	7	-17%	-5%
CCNC(=O)CC1C(=O)N(c2ccc(F)cc2)C(=O)N1CCc1sccc1C (stereo not given)
 : 3.0%	0	13%	3%
O=C(CSc1nc2ccccc2c(=O)n1CCCN1CCOCC1)Nc1cccc(S(=O)(=O)N2CCCCCC2)c1
 : -5.1%	?	21%	28%
Clc1ccc2oc(-c3ccccn3)nc2c1
 : 5.1%	-2	?	-34%
O=C(NC(=S)N1CCN(C2CCCCC2)CC1)c1ccccc1
 : ?	2	6%	-2%

# Profiles as entered above. Order of screens: Rango complex inh	GLA inh pH 4.5	Rango release inh	miR-21 FLuc
# `C=CCc1ccc(OCC(O)CN2CCN(Cc3ccc(Cl)cc3)CC2)c(OC)c1` (stereo not given) is listed as 5.2%	-1	2%	18%
# `Cc1ccc(C(=O)c2sc(Nc3ccccc3)c(C#N)c2N)cc1` is listed as ?	-12	-1%	-14%

# The listing continues.
# Values run as follows: Rango complex inh	GLA inh pH 4.5	Rango release inh	miR-21 FLuc
CCN(CC)S(=O)(=O)c1ccc(C(=O)OCn2c(SC)nnc(C)c2=O)cc1
 : -3.4%	-2	0%	-5%
COc1ccc(NC(=O)c2ccc([N+](=O)[O-])o2)cc1
 : -2.3%	·	-14%	-3%
COCCOC(=O)c1c(C)oc2cc(Br)c(OCC(N)=O)cc12
 : 0.0%	5	0%	-5%
O=C(NNC(=O)c1ccc2ccccc2c1)c1ccc(Cl)c(Cl)c1
 : -1.8%	·	-2%	·
CC(C)c1ccc(-c2nnn(Cc3nc4ccccc4s3)n2)cc1
 : -3.4%	-21	0%	1%
Cc1nc2ccccc2c2c1C(=O)N(C(C)C)C2=O
 : -1.6%	9	8%	-3%

# Screens (PubChem BioAssay)

# A portion of the library; rates above refer to the full screens.
